Autofluor counter: counter-screen for toxin protease inhibitors: compound fluorescence; 360,000 compounds, 3.1% hits; fluorescence intensity (no concentration beside the values); compound autofluorescence counterscreen, microsphere flow cytometry; hits give high values;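 active = at least 3 SD above the mean of all compounds, about 16000 in these data; inconclusive = too few beads counted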;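 note: 100 nL of 1 mM stock went into each well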
PrP UTR inh: inhibition of PrP 5' UTR reporter expression | cell-based PrP 5' UTR mRNA reporter, plate reader | inhibition, % (no concentration beside the values) | 340,000 compounds, 0.35% hits | AID 488862, 2010;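 active = every replicate at 50% or more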;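 note: 0 = median of the neutral control wells; tested in H4 reporter cells; numbers are from one replicate; inactives centre near -14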
BJeLR lethal: MLPCN primary cell-based screen for lethality selective to Ras in HRASV12 cells. 300,000 compounds, 0.17% hits. inhibition, % (concentration not given with the values). BJeLR (HRASV12) viability, CellTiter-Glo ATP luminescence, 48 h; reference of the scale not given here. AID 1554, 2009;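 active = replicate mean above 50%; inconclusive = above 50% but judged a plate artefact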;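 note: 50 nL library stock added to about 25 µL; numbers are from one replicate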
RN4220 kill: growth inhibition of S. aureus RN4220, primary screen, OD600 | 16 h | inhibition, % (no concentration beside the values) | 330,000 compounds, 0.33% hits;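 active = z-score of -3 or lower and OD600 up to 0.18 on both plates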;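 note: plate controls were untreated cells for no effect and reference antibiotic for full effect; stock transfer was 100 nL into about 80 µL; one replicate is shown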
Mtb hypoxia inh: PubChem AID 1159583. M. tuberculosis hypoxia-regulated fluorescent reporter, fluorescence. fluorescence inhibition, % (test concentration not listed). 300,000 compounds, 0.1% hits;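 active = 35 to 45% if threefold the growth effect, above 45% if 1.5-fold the growth effect; inactive = the rest, general growth blockers included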;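 note: wells of about 50 µL received 100 nL stock; 0% = vehicle wells and 100% = reference inhibitor wells; whole bacteria with a GFP reporter of the hypoxia response; strong numbers were not always called active; many hits fall short of the cut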
Sa ugtP lethal: growth inhibition of ugtP-null S. aureus, primary screen, RN4220 ugtP deletion, OD600 | 16 h; some inactives read as strong as hits | 330,000 compounds, 0.54% hits | growth inhibition, % (concentration not given with the values);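 active = z-score under -3 and OD600 up to 0.15 on both plates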;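 note: plate controls were untreated wells for no effect and antibiotic for full effect; wells of about 80 µL received 100 nL stock; the first replicate is given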
Mtb hypoxia inh growth: also measured in Mtb hypoxia inh; calls as there; growth inhibition, %; measured here: M. tuberculosis growth (absorbance);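 0% = vehicle and 100% = reference antibiotic; read after six days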
Numbers without * were called inactive; ? = inconclusive; · = no result given; & = joins results of further samples.

SMILES	Autofluor counter	PrP UTR inh	BJeLR lethal	RN4220 kill	Mtb hypoxia inh	Mtb hypoxia inh growth	Sa ugtP lethal
NC(=O)NC(=O)CN1C(=O)NC2(CCOc3ccccc32)C1=O (stereo unspecified)	5250	-9	-6	2.2	19	9	4
CCOC1OC(C(=O)NCc2ccccc2)=CC(c2coc3ccccc3c2=O)C1CCCO (stereo unspecified)	·	·	·	4.5&0.5	10&10	14&7	6&-10
Cc1nc2ncnn2c(N2CCC(C(=O)NCC3CCCO3)CC2)c1Cc1ccccc1 (stereo unspecified)	11478	-41	·	1.3	3	2	5
CCOC(=O)c1c(NC(=O)c2cc(C(C)C)on2)sc(C(C)=O)c1C	4314	0	-1	6.6	5	7	9
CCOC(=O)c1c(N=Cc2cc(OC)cc([N+](=O)[O-])c2O)sc(C)c1C	·	·	·	0.4	5	-1	2
CCO[C@@H]1OC(C(=O)O)=C[C@H](C2CC2)[C@H]1CCCO	3728	-11	4	·	·	·	·
O=C1NC(c2cccs2)Nc2sc3c(c21)CCCC3 (stereo unspecified)	5617	-90	5	-4.8	·	·	-7
O=S(=O)(Cc1ccc(Cl)cc1)CC(O)COCc1ccccc1 (stereo unspecified)	8385	-34	-2	0.9	17	10	12
CCCCCCCCCCCCC(NC(C)=O)(C(=O)OCC)C(=O)OCC	3093	-16	7	8.0	4	4	16
CC(C)CC(=O)Nc1ncc([N+](=O)[O-])s1	3432	-75	-13	22	4	6	33
NC(=O)C1CCCN1 (stereo unspecified)	4025	-33	6	3.9	6	8	4
COc1cccc2c3c(c(C)nc12)CCN3c1ccccc1	4647	-12	9	-8.1	-2	2	0
CN1CCN(C(=O)C2=CC(C3CCCCC3)CC(OCc3ccc(CO)cc3)O2)CC1 (stereo unspecified)	·	·	·	4.1&10	9&6	10&9	-7&-9
COc1ccc(NS(=O)(=O)c2c(C)[nH]c(=O)[nH]c2=O)cc1OC	3565	-7	-4	1.9	10	-3	3
O=C(NC1CC1)C1CCN(C2CCN(C(=O)CC3=CCCCC3)CC2)CC1	4907	-10	-3	7.2	5	6	8
Cc1ccc(S(=O)(=O)Nc2cc(=O)[nH]c(SCC(=O)Nc3ccccc3C(F)(F)F)n2)cc1	4072	-23	9	3.5	-3	1	4
CC(=O)c1cccc(NC(=O)C2CCCN(S(=O)(=O)c3cccc4nonc34)C2)c1 (stereo unspecified)	3900	3	-2	1.4	-1	14	0
CCOC(=O)C1=C(COC(=O)/C=C/c2cccc(F)c2)NC(=O)NC1C (stereo unspecified)	4028	-26	·	4.9	11	7	2
COc1ccc(C(=O)NCC(=O)OCC(=O)N(C)c2ccccc2)cc1	3237	-3	6	2.5	16	3	2
COc1cc(C(=O)OC(C)CN2CCN(C)CC2)cc(OC)c1OC (stereo unspecified)	4868	-3	-7	0.1	4	5	7
CC1CCN(C(=O)c2cc3ccccc3o2)CC1	2792	-53	-15	6.4	·	·	1
Cc1[nH]c2ccccc2c1/C=N/NC(=O)c1cc(-c2ccncc2)nc2ccccc12	5780	-31	14	·	·	·	·
COc1cccc(OCc2cc(C(=O)N(C)CCC3CCCCO3)no2)c1 (stereo unspecified)	6021	-30	-6	1.6	2	9	-5
Cc1cccc(OCCCn2c(CCNC(=O)C(C)C)nc3ccccc32)c1	2869	-19	5	2.8	8	7	-4
O=C(CCN1C(=O)c2cccc3cccc(c23)C1=O)NCc1ccco1	2137	-14	4	-4.1	-1	-8	-20
COCCNC(=O)CCc1nc2cccnc2n1Cc1ccc(OC)cc1	4259	-12	0	4.2	-12	-7	14
COc1ccc(/C=N/NC(=O)c2[nH]c3ccc(Br)cc3c2-c2ccccc2)cc1	2382	68*	55*	·	·	·	·
Cc1nnc(SCC(=O)NC(=O)Nc2ccc3c(c2)OCCO3)n1N	5166	-39	5	2.3	-5	-3	-2
NC(=S)N/N=C/c1coc2cc(Br)ccc2c1=O	5246	-30	3	·	·	·	·
Cn1c(N/N=C/c2c[nH]c3ccccc23)nc2ccccc21	4158	-117	-4	·	·	·	·
O=C(CC(c1ccccc1)c1cc(Cl)ccc1O)NCCN1CCOCC1 (stereo unspecified)	5929	-14	5	1.0	2	-1	5
COc1cccc(CN2CCNC(=O)C2CC(=O)N2CCOc3ccccc3C2)c1OC (stereo unspecified)	4780	-8	-6	0.8	-3	3	-3
Cn1c(=O)[nH]c(=O)c2c1nc(N1CCOCC1)n2CC(O)COc1ccccc1 (stereo unspecified)	3119	-3	5	-8.7	2	7	-3
Cc1ccsc1/C=N/NC(=O)c1sccc1C	2457	-49	9	·	·	·	·
CCn1c(O)c(C#N)c(C)cc1=O	·	-13	3	-1.1	5	2	2
COc1ccc(-c2cc3nc[nH]c(=O)c3s2)cc1	4011	-39	0	4.2	-1	7	-6

Looked up above:
Under BJeLR lethal, CCn1c(O)c(C#N)c(C)cc1=O has 3
Under Autofluor counter, O=C(CCN1C(=O)c2cccc3cccc(c23)C1=O)NCc1ccco1 has 2137
Under RN4220 kill, CN1CCN(C(=O)C2=CC(C3CCCCC3)CC(OCc3ccc(CO)cc3)O2)CC1 (stereo unspecified) has 4.1&10
Under PrP UTR inh, COc1ccc(NS(=O)(=O)c2c(C)[nH]c(=O)[nH]c2=O)cc1OC has -7
Under Mtb hypoxia inh growth, CC(C)CC(=O)Nc1ncc([N+](=O)[O-])s1 has 6
Under Autofluor counter, COCCNC(=O)CCc1nc2cccnc2n1Cc1ccc(OC)cc1 has 4259

(more compounds)
SMILES	Autofluor counter	PrP UTR inh	BJeLR lethal	RN4220 kill	Mtb hypoxia inh	Mtb hypoxia inh growth	Sa ugtP lethal
CCn1c(C)nc2cc(S(=O)(=O)C(F)(F)C(F)C(F)(F)F)ccc21 (stereo unspecified)	11323	-24	3	2.2	0	7	7
COC(=O)c1c(C)[nH]c(C(=O)C(C)OC(=O)c2cc(C)oc2C)c1C (stereo unspecified)	6696	-17	·	-2.6	3	-5	8
O=C(COC(=O)/C=C/c1ccco1)NCc1ccco1	4049	-26	-7	3.4	6	3	-1
COc1ccc(/C=N/NC(=O)CCN2CCCCC2c2cccnc2)cc1Cn1cc([N+](=O)[O-])cn1 (stereo unspecified)	5670	-37	1	·	·	·	·
CCOc1ccc(NC(=O)c2ccc(CSc3nnnn3C)cc2)cc1	10020	-23	18	19	10	0	12
COc1c2c(cc3oc(C)cc(=O)c13)OC(C(C)(C)OC1OC(CO)C(O)C(O)C1O)C2 (stereo unspecified)	2912	-15	-3	8.3	18	6	6
CCn1c(SCC(=O)Nc2ccc3[nH]c(=O)[nH]c3c2)nc2ccccc21	3567	-53	·	0.4	12	6	-4
O=C(/C=C/c1ccc(Cl)cc1)NCCCN1CCOCC1	5964	-20	-3	1.4	5	0	3
CCC(=O)Nc1ccc(NC(=S)Nc2ccccc2)cc1	2035	-22	-7	-3.0	-2	7	-3
Cc1cc(N2CCOCC2)nc(SCc2ccc(Cl)cc2Cl)n1	2439	-17	5	3.3	·	·	3
CSc1ncccc1C(=O)NCCc1ccc(S(N)(=O)=O)cc1	3712	-35	3	0.0	4	-7	10
Cc1nn(-c2ccccc2)c(C)c1/C=N/NC(=O)c1cc(O)cc(O)c1	4946	-18	-15	·	·	·	·
CCN(CC)S(=O)(=O)c1cccc(C(=O)NC(C(=O)Nc2nnc(C)s2)C(C)C)c1 (stereo unspecified)	3091	-12	3	1.2	·	·	10
COc1cc2c(cc1OC)C(C(C)C)=NC(C)(C)C2	2268	-9	3	16	6	1	14
Cc1nc(/N=C(\N)NC(=O)NC2CCCCC2)nc2ccccc12	4246	-8	11	·	·	·	·
Cc1ccc(/C=N/N(C)C2=NS(=O)(=O)c3ccccc32)cc1	3474	-3	-1	·	·	·	·
Cc1nc(Nc2ccc(F)cc2)[nH]c(=O)c1CCC(C)C	4121	-31	7	-8.0	4	-2	-12
CNC(=O)c1cc(C(=O)c2ccc(F)cc2Cl)c[nH]1	3366	7	0	3.4	13	-6	11
Fc1cccc(Cc2noc(CN3CCN(C4CCc5ccccc5C4)CC3)n2)c1 (stereo unspecified)	2481	2	6	5.1	9	1	16
CC(C)C1COCCS(=O)(=O)N1Cc1cccc(Cl)c1 (stereo unspecified)	·	·	·	6.7	7	4	7
O=S(=O)(NCC1CCCO1)c1cc(Br)c(Br)s1 (stereo unspecified)	4778	5	1	0.9	·	·	5
O=C(CCn1c2c(c3ccccc31)CCCC2)NNC(=O)c1ccccc1C(=O)O	4757	-17	-2	2.6	-11	-4	-9
COC(=O)c1sccc1N(C)S(C)(=O)=O	3351	-28	-2	1.3	-4	4	5
Cc1ccc(S(=O)(=O)N2CCC(C(=O)N/N=C/c3ccccc3[N+](=O)[O-])CC2)cc1	2515	-20	-3	·	·	·	·
Cc1ccc(CN2CCCC(C(=O)c3sccc3C)C2)o1 (stereo unspecified)	4696	7	6	1.2	12	2	4
O=C(NCC(c1ccco1)N1CCc2ccccc2C1)c1ccccc1Cl (stereo unspecified)	?	-13	3	0.7	8	-5	7
CCOc1c(O)ccc(/C=C2\SC(=S)NC2=O)c1[N+](=O)[O-]	3762	-13	7	56	·	·	41
COc1cc([N+](=O)[O-])cc(C=NNC(=O)C(O)(c2ccccc2)c2ccccc2)c1O	·	·	·	5.4	1	-1	13
COCCCNc1oc(COc2ccc(Cl)cc2Cl)nc1C#N	2409	-15	-1	2.6	·	·	4
CCOc1ccc(N2C(=O)CN=C2Nc2ccccc2Cl)cc1	3167	-13	2	-9.5	18	11	-5
CCCCN(Cc1ccccc1)C(=O)C1CCCN(S(=O)(=O)c2cnc[nH]2)C1 (stereo unspecified)	5816	-13	8	-1.1	·	·	6
CCOc1ccc(NC(=O)CN(C)C(=O)Cc2c(C)nc3ccccc3c2C)cc1OCC	6428	-19	-8	1.4	0	-5	0
CN(C)/C=C1\C(=O)N(c2ccc(Oc3ccccc3)cc2)CS1=O (stereo unspecified)	22670*	-32	-8	7.7	10	14	0
CCN(CC)C(CNC(=O)c1cc(=O)[nH]c2ccccc12)c1ccccc1Cl (stereo unspecified)	6155	0	-3	3.7	16	0	3
COc1ccc(CCNC2=C(Cl)C(=O)N(Cc3ccccc3)C2=O)cc1OC	2056	-12	0	-1.1	3	14	-7
O=C(N/N=C/c1cccs1)c1ccc2c(c1)OCO2	2336	-31	-17	·	·	·	·
CCN(CC)CCN1C(=O)/C(=C\c2ccc(Cl)c([N+](=O)[O-])c2)SC1=Nc1ccc(OC)cc1	3766	6	88*	-6.2	4	5	93*
O=C(COC(=O)C1CCCCC1)Nc1cccc(F)c1	2985	-21	·	4.5	16	12	6
Cn1c(=O)c(=O)n(C)c2cc(S(=O)(=O)CCC(=O)N3CCOCC3)ccc21	6122	-8	0	4.7	·	·	-6
COCCNC(=O)c1ccc2c(=O)n(Cc3ccco3)c(SCC(=O)Nc3ccc(OC)cc3OC)nc2c1	4144	-27	-5	6.3	8	-2	12
COc1cc(OC)c(OC)cc1/C=N/NC(=S)NCCN1CCOCC1	4194	-2	-3	·	·	·	·
COc1cccc(-c2nnc(NC(=O)C(C)C)o2)c1	4571	-2	1	4.3	8	7	4
O=C(CC(NCCN1CCOCC1)C(=O)O)Nc1cccc(Cl)c1 (stereo unspecified)	3406	5	-10	2.5	9	2	4
N#CCCN(Cc1cccnc1)S(=O)(=O)c1ccc(S(=O)(=O)N2CCCCCC2)cc1	12958	-27	4	5.5	1	4	0
CCCCn1c(N)c(N(Cc2ccccc2OC)C(=O)c2c(CC)noc2C)c(=O)[nH]c1=O	4821	-12	14	1.1	7	-8	6
O=C(Nc1ccc2c(c1)OCO2)C1CCCN1C(=O)NCc1ccccc1 (stereo unspecified)	3557	-12	3	4.1	19	10	8
COc1ccc(CCn2c3c(c(=O)[nH]c2=O)C(NC(=O)c2cccs2)(C(F)(F)F)C(=O)N3)cc1OC (stereo unspecified)	5271	-14	1	3.4	1	9	-2

Reprinted at random: 2 entries already listed
SMILES	Autofluor counter	PrP UTR inh	BJeLR lethal	RN4220 kill	Mtb hypoxia inh	Mtb hypoxia inh growth	Sa ugtP lethal
N#CCCN(Cc1cccnc1)S(=O)(=O)c1ccc(S(=O)(=O)N2CCCCCC2)cc1	12958	-27	4	5.5	1	4	0
Cn1c(=O)c(=O)n(C)c2cc(S(=O)(=O)CCC(=O)N3CCOCC3)ccc21	6122	-8	0	4.7	·	·	-6

Assay outcomes (PubChem)
